High-throughput results deposited in PubChem BioAssay by several laboratories.
BJeLR lethal – kills HRASV12-expressing BJeLR cells. BJeLR (HRASV12) viability, CellTiter-Glo ATP luminescence, 48 h; reference of the scale not given here. inhibition, % (concentration not given with the values). hit rate 0.17% among 300,000. AID 1554;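 active = replicate mean above 50%; inconclusive = above 50% but judged a plate artefact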;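 note: 50 nL library stock added to about 25 µL; numbers are from one replicate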
Mtb hypoxia inh – Mtb hypoxia fluorescent reporter inhibition. M. tuberculosis hypoxia-regulated fluorescent reporter, fluorescence. fluorescence inhibition, % (test concentration not listed). hit rate 0.1% among 300,000;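 active = 35 to 45% if threefold the growth effect, above 45% if 1.5-fold the growth effect; inactive = the rest, general growth blockers included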;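 note: wells of about 50 µL received 100 nL stock; 0% = vehicle wells and 100% = reference inhibitor wells; whole bacteria with a GFP reporter of the hypoxia response; strong numbers were not always called active; many hits fall short of the cut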
PrP UTR inh – inhibition of PrP 5' UTR reporter expression. cell-based PrP 5' UTR mRNA reporter, plate reader. inhibition, % (test concentration not listed). hit rate 0.35% among 340,000. AID 488862;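 active = every replicate at 50% or more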;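 note: 0 = median of the neutral control wells; tested in H4 reporter cells; numbers are from one replicate; inactives centre near -14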
Sa RN4220 lethal – S. aureus RN4220 growth inhibition; OD600, 16 h; inhibition, % (test concentration not listed); hit rate 0.33% among 330,000;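 active = z-score of -3 or lower and OD600 up to 0.18 on both plates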;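 note: plate controls were untreated cells for no effect and reference antibiotic for full effect; stock transfer was 100 nL into about 80 µL; one replicate is shown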
Autofluor counter – compound fluorescence in toxin protease inhibitor counterscreen. compound autofluorescence counterscreen, microsphere flow cytometry; hits give high values. fluorescence intensity (test concentration not listed). hit rate 3.1% among 360,000. AID 624483;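 active = at least 3 SD above the mean of all compounds, about 16000 in these data; inconclusive = too few beads counted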;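 note: 100 nL of 1 mM stock went into each well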
ugtP null kill – growth inhibition of S. aureus ugtP deletion strain. growth inhibition, % (concentration not given with the values). S. aureus RN4220 ugtP deletion, OD600 growth, 16 h; some inactives read as strong as hits. hit rate 0.54% among 330,000. AID 1259309;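 active = z-score under -3 and OD600 up to 0.15 on both plates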;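 note: plate controls were untreated wells for no effect and antibiotic for full effect; wells of about 80 µL received 100 nL stock; the first replicate is given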
Mtb hypoxia inh growth – second read-out of Mtb hypoxia inh, no call of its own (marks repeat the call); growth inhibition, %; measured here: M. tuberculosis growth (absorbance);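 0% = vehicle and 100% = reference antibiotic; read after six days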
* = called active by the depositor; ? = inconclusive; nt = no result given.

SMILES | BJeLR lethal | Mtb hypoxia inh | Mtb hypoxia inh growth | PrP UTR inh | Sa RN4220 lethal | Autofluor counter | ugtP null kill
O=C(CSc1nnc(Cc2ccccc2)n1-c1ccccc1)NNC(=O)Cc1ccccc1 | 13 | 0 | 14 | 10 | 2.3 | 21981* | 0
Cn1c(=O)cc(SCC(=O)N2CCC3(CC2)OCCO3)c2ccc(Cl)cc21 | nt | 6 | 2 | -10 | -3.4 | 6441 | -1
O=C(Cn1c(=O)n(Cc2ccco2)c(=O)c2ccccc21)NCC1CCCO1 (stereo not drawn) | 3 | nt | nt | -21 | 2.4 | 5320 | -3
Cc1ccc(S(=O)(=O)NC(C)C(=O)N2CCOCCOCCOCCOCC2)cc1 (stereo not drawn) | -14 | -16 | -18 | -9 | -0.1 | 6129 | 6
Cc1nc2nc(-c3ccco3)[nH]n2c(=O)c1Cc1ccccc1 | 1 | nt | nt | -4 | 5.1 | 2236 | 14
CCOc1ccc(NS(=O)(=O)c2cc3c4c(c2)CCN4C(=O)CC3)cc1 | -2 | 7 | -3 | -20 | 5.0 | 5761 | 11
CCOc1ccc2c(c1)c(N=NC(N)=S)c(O)n2C | 11 | 11 | 2 | nt | 3.4 | 4636 | 6
O=C(COC(=O)C1CC2CCCC(C1)C2=O)NC1CCCCC1 (stereo not drawn) | nt | 2 | -3 | -10 | 3.4 | 6291 | 5
Cc1cccc(Nc2cc(=O)[nH]c(=O)[nH]2)c1 | 12 | -4 | -4 | -14 | 12 | 2196 | 14
CCn1c(=O)n(-c2ccc(Cl)cc2)c(=O)c2c3c(sc21)COC(C)(C)C3 | 3 | -9 | -8 | -16 | -0.3 | 4331 | 6
CCCCc1nnc(SCCSc2nnc(CCCC)n2N)n1N | nt | 6 | 1 | -10 | 4.9 | 23554* | 1
Oc1ccc(/C=N/N(Cc2ccccc2)c2ccccc2)cc1 | -1 | nt | nt | -3 | nt | 4239 | nt
CCN1C(=O)[C@H]2[C@@H](c3ccc(C)cc3)N3C(=O)N(c4cccc(F)c4)C(=O)[C@@]3(CC)[C@H]2C1=O | -2 | nt | nt | 8 | nt | 3726 | nt
Cn1c(=O)c2c(nc(NCCNC(=O)c3ccco3)n2Cc2ccc(Cl)cc2Cl)n(C)c1=O | 7 | 10 | -3 | -36 | 2.0 | 8058 | -5
C[C@@H]1CC2OC(=O)[C@@]3(C)C(=O)CC[C@@](C)(C23)[C@@]1(O)CCc1ccoc1 (stereo partly drawn) | 1 | 5 | -7 | -9 | 2.2 | 3215 | 4
Cc1ccc(NC(=O)C(C)OC(=O)CCN=C2NS(=O)(=O)c3ccccc32)cc1 (stereo not drawn) | -2 | 8 | -2 | -20 | 1.2 | ? | 6
Nc1ccccc1C(=O)OCC(=O)c1ccc2c(c1)OCCO2 | 4 | 13 | 6 | -42 | 1.8 | 4211 | 6
COCCOCCn1cnc2ccccc21 | 2 | 11 | 17 | -7 | 4.9 | 9767 | -1
CN(C(=O)COC(=O)c1ccc2c(c1)OCO2)c1c(N)n(Cc2ccccc2)c(=O)[nH]c1=O | 4 | -3 | -10 | -8 | 3.3 | 6283 | 2
COc1ccc(CN(C)C(=O)c2cccc(Oc3ccccc3)c2)c(OC)c1OC | -1 | -2 | -1 | -9 | 6.8 | 5002 | 13

No new results follow: an excerpt of the list.
SMILES | BJeLR lethal | Mtb hypoxia inh | Mtb hypoxia inh growth | PrP UTR inh | Sa RN4220 lethal | Autofluor counter | ugtP null kill
Cc1nc2nc(-c3ccco3)[nH]n2c(=O)c1Cc1ccccc1 | 1 | nt | nt | -4 | 5.1 | 2236 | 14
CCOc1ccc(NS(=O)(=O)c2cc3c4c(c2)CCN4C(=O)CC3)cc1 | -2 | 7 | -3 | -20 | 5.0 | 5761 | 11

Further entries:
SMILES | BJeLR lethal | Mtb hypoxia inh | Mtb hypoxia inh growth | PrP UTR inh | Sa RN4220 lethal | Autofluor counter | ugtP null kill
CCOc1ccc2nc(SCC(=O)NCc3ccc4c(c3)OCO4)[nH]c2c1 | 17 | 2 | 3 | nt | -2.0 | 11252 | 4
Cc1cc(C(=O)Nc2ccccc2N2CCCCC2)no1 | 4 | 1 | 4 | -6 | 5.4 | 6014 | 31
CCOC(=O)C1=C(C)N=c2s/c(=C\C(=O)OC)c(=O)n2C1c1ccc(OC)cc1 (stereo not drawn) | 0 | nt | nt | 4 | nt | 3132 | nt
c1ccc(NC2=NCCN2CC2CCC2)cc1 | nt | 6 | 7 | -32 | 6.5 | 4045 | 0
CCc1cc2c(SCC(=O)O)ncnc2s1 | -10 | 2 | -2 | -16 | 2.4 | 18901* | 4
COc1ccccc1-c1nc(S(=O)(=O)c2ccccc2)c(N2CCCCC2)o1 | 8 | -1 | 1 | -11 | 0.9 | 3613 | 8
COC(=O)c1[nH]c2cc(OC)c(OC)cc2c1NC(=O)CN1C[C@H]2C[C@@H](C1)c1cccc(=O)n1C2 | nt | 11 | 10 | -13 | 5.0 | 5051 | 4
C[C@H](NC(=O)OCc1ccccc1)C(=O)N[C@@H](Cc1c[nH]c2ccccc12)C(=O)O | -8 | nt | nt | -27 | nt | 4448 | nt
COc1ccc2nc(SCCN(C)C)[nH]c2c1 | 2 | 14 | 5 | -31 | 1.2 | 4569 | 6
Cc1cccc(-n2c(CNC(=O)c3ccccc3)nnc2SCC(=O)Nc2nccs2)c1 | -5 | -3 | -1 | 4 | 7.2 | 4566 | -5
CCN(CC)c1ccc(/C=C2\CCC(/C=C(\C#N)C(=O)Nc3ccccc3F)=C2N2CCOCC2)cc1 | 14 | 11 | 2 | -11 | 1.1 | 3080 | 0
O=C(CSc1nnc(-c2n[nH]c3ccccc23)n1-c1ccccc1)Nc1ccccc1Cl | 6 | 9 | 6 | -98 | 3.5 | 2489 | -11
Cc1cc(NC(=O)CSc2nc(=O)cc(N)n2-c2ccc(Cl)cc2)no1 | 29 | 15 | 0 | -23 | 15 | 4327 | -70
O=C(c1cccc(C(F)(F)F)c1)N1CCC(O)(CS(=O)(=O)Cc2ccccc2)CC1 | 4 | 10 | 1 | -10 | 6.7 | 4383 | 7
CCOC(=O)c1ccc(N/C=C2\CCCCC2=O)cc1 | 5 | 3 | 8 | -89 | 21 | 2585 | 9
COc1ccccc1OCc1ccc(C(=O)N2CCOCC2)o1 | -9 | nt | nt | 2 | nt | 2499 | nt
O=C(CSc1nnc(C2CC2)n1Cc1ccco1)NCC(F)(F)F | -7 | -3 | -7 | -26 | 7.5 | 3594 | 11
C/C(=N\NC(=O)C(O)(c1ccccc1)c1ccccc1)c1ccc(NC(=O)CCCC(=O)O)cc1 | -1 | nt | nt | -6 | nt | 5772 | nt
O=C(CNc1ccc(F)cc1)N/N=C/c1c(O)ccc2ccccc12 | -14 | nt | nt | 23 | nt | 3423 | nt
Cc1ccc(-c2noc(CCC(=O)NCC3CCCO3)n2)cc1 (stereo not drawn) | 6 | -4 | 0 | -3 | 0.5 | 23346* | -5

Shown with tabs: entries from further up
molecule	BJeLR lethal	Mtb hypoxia inh	Mtb hypoxia inh growth	PrP UTR inh	Sa RN4220 lethal	Autofluor counter	ugtP null kill
O=C(c1cccc(C(F)(F)F)c1)N1CCC(O)(CS(=O)(=O)Cc2ccccc2)CC1	4	10	1	-10	6.7	4383	7
CCOC(=O)c1ccc(N/C=C2\CCCCC2=O)cc1	5	3	8	-89	21	2585	9
COc1ccccc1OCc1ccc(C(=O)N2CCOCC2)o1	-9	nt	nt	2	nt	2499	nt
O=C(CSc1nnc(C2CC2)n1Cc1ccco1)NCC(F)(F)F	-7	-3	-7	-26	7.5	3594	11
C/C(=N\NC(=O)C(O)(c1ccccc1)c1ccccc1)c1ccc(NC(=O)CCCC(=O)O)cc1	-1	nt	nt	-6	nt	5772	nt
O=C(CNc1ccc(F)cc1)N/N=C/c1c(O)ccc2ccccc12	-14	nt	nt	23	nt	3423	nt

Looked up above.
C/C(=N\NC(=O)C(O)(c1ccccc1)c1ccccc1)c1ccc(NC(=O)CCCC(=O)O)cc1 | BJeLR lethal = -1
O=C(CSc1nnc(C2CC2)n1Cc1ccco1)NCC(F)(F)F | BJeLR lethal = -7
CCOc1ccc2nc(SCC(=O)NCc3ccc4c(c3)OCO4)[nH]c2c1 | Mtb hypoxia inh growth = 3

Returning to the listing with the three entries that preceded the break.
SMILES | BJeLR lethal | Mtb hypoxia inh | Mtb hypoxia inh growth | PrP UTR inh | Sa RN4220 lethal | Autofluor counter | ugtP null kill
C/C(=N\NC(=O)C(O)(c1ccccc1)c1ccccc1)c1ccc(NC(=O)CCCC(=O)O)cc1 | -1 | nt | nt | -6 | nt | 5772 | nt
O=C(CNc1ccc(F)cc1)N/N=C/c1c(O)ccc2ccccc12 | -14 | nt | nt | 23 | nt | 3423 | nt
Cc1ccc(-c2noc(CCC(=O)NCC3CCCO3)n2)cc1 (stereo not drawn) | 6 | -4 | 0 | -3 | 0.5 | 23346* | -5
C/C(C=NNC(=O)Cc1cccn1C)=C\c1ccccc1 | nt | 2 | 1 | nt | 3.2 | nt | 8
COC(=O)CCCNC(=O)c1ccc2nc(Cc3ccc(OC)cc3)oc2c1 | 5 | 18 | 9 | -30 | 3.6 | 4187 | 12
COc1ccc(Nc2ccc([N+](=O)[O-])cn2)cc1 | 9 | 12 | 11 | -14 | -2.3 | 3664 | 7
CC(C)C(OC(=O)c1cc2sccc2n1C)C(=O)NCC1CCCO1 (stereo not drawn) | -1 | 3 | 5 | -19 | 2.6 | 13134 | 1
Cc1ccc(NCc2n[nH]c(=S)n2-c2cccc(Cl)c2)cc1 | 6 | 1 | -2 | -17 | -1.9 | 5122 | -10
CCCOc1ccc(NC(=O)CC2Nc3ccccc3NC2=O)cc1 (stereo not drawn) | 7 | 11 | 11 | -35 | 3.3 | 4092 | 4
O=C(O)CCS(=O)(=O)c1cccc2cccnc12 | 1 | 3 | -12 | -7 | 1.3 | 13417 | 6
O=C(NCc1n[nH]c(=S)n1-c1cccc(C(F)(F)F)c1)c1ccc(S(=O)(=O)N2CCCC2)cc1 | -4 | 11 | 9 | -17 | 2.7 | 2238 | -2
Cc1cc2ccccc2nc1SCC(=O)N1CCCC1 | -11 | nt | nt | -9 | 6.9 | 11395 | 8
Clc1ccc(/C=N/N2CCN(Cc3ccccc3Cl)CC2)cc1 | 8 | nt | nt | -25 | nt | 2564 | nt
CCOc1ccc(S(=O)(=O)NCCC(=O)NCCc2ccc(OCC)c(OCC)c2)cc1 | 2 | 2 | -1 | -1 | 2.6 | ? | -2
CC(C)(C)NC(=O)CN1CCCN(C(=O)c2cccc(S(=O)(=O)N3CCc4ccccc43)c2)CC1 | nt | 2 | 6 | -6 | 1.7 | 4029 | 2
OCCCC1CCCCN1Cc1nc(Cc2ccccc2Cl)no1 (stereo not drawn) | -1 | 11 | -1 | -22 | 10 | 3917 | 7
CC(C)CC(=O)Nc1ccc(F)c(Cl)c1 | -4 | 8 | 5 | -20 | 2.3 | ? | -1
CN(C)S(=O)(=O)c1ccc(Cl)c(C(=O)OCC(=O)NC(=O)NC2CCCC2)c1 | nt | 6 | 11 | -5 | 6.5 | 3459 | 3
CCc1nnc(NS(=O)(=O)c2ccccc2)s1 | 0 | nt | nt | -28 | nt | 3600 | nt
O=C(OCC(=O)N1CCN(C(=O)COC(=O)c2ccccc2NCCO)CC1)c1ccccc1NCCO | nt | 9 | 16 | -8 | 2.1 | 3586 | 3
CC1(C)OC(=O)CC1C(=O)NCc1ccccc1 (stereo not drawn) | 0 | nt | nt | 1 | 1.0 | 2592 | 3
COc1cccc(N/C=C/C(=O)c2ccc(C)cc2)c1 | -11 | 6 | 0 | -16 | -1.1 | 4185 | 4
Cc1onc(-c2ccccc2)c1C(=O)NCCc1c[nH]c2ccccc12 | -1 | 1 | 5 | -21 | 11 | 7441 | -3
